Assay outcomes from PubChem BioAssay.
NPYLR7 ag – mosquito NPYLR7 agonism. hit rate 0.15% among 270,000. HEK293T NPYLR7/Galpha15, GCaMP6s calcium fluorescence. activation, % at 10 µM. AID 1259423; in the data active = activation above about 40%;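 note: 0% = vehicle and 100% = reference agonist at the receptor; some compounds past the cut are filed as inactive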
NPYLR7 ag max-min – further read-out of NPYLR7 ag, marked with its call; activation, %; measured here: Max-Min RFU normalised activation; some inactives read as strong as hits;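 span of the calcium signal over five minutes; 0% = vehicle and 100% = native peptide agonist; compound fluorescence can raise it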
* marks the source's active call; other numbers are inactive results. A portion of the library; the hit share may differ from the screen's.

A first look, 17 compounds:
SMILES	NPYLR7 ag	NPYLR7 ag max-min
OC(Cc1ccccc1)CN(Cc1ccccc1Cl)CC1CC(c2ccc(F)cc2)=NO1 (centres undefined)	-1.7	2.7
COc1ccc(/C=C/C2=NC(=C\c3cc(OC)ccc3OC)/C(=O)O2)cc1	-0.3	-2.0
CN(CCC(O)c1ccccc1)c1nncc(-c2cc3ccccc3o2)n1 (centres undefined)	-1.0	-5.6
S=c1oc2ccccc2n1CN1CCOCC1	9.0	6.3
O=S(=O)(Nc1cccc(F)c1)c1cc(Cl)sc1Cl	0.2	6.9
NC(=O)c1c(NC(=O)NC2CCCCC2)sc2c1CCC2	7.4	6.2
CCOC(=O)c1cnc(-c2ccc(OC)c(OC)c2)nc1N1CCCC1	-2.6	-3.4
CC(C)c1cc(C(=O)NC2CC(=O)N(C3Cc4ccccc4C3)C2)cs1 (centres undefined)	4.5	2.1
COc1ccc(N2C(=O)CC(NNC(=O)c3cc(C(F)(F)F)[nH]n3)C2=O)cc1 (centres undefined)	-0.1	17.8
Cc1ccc(C(=O)Nc2ccc(SCCN3CCOCC3)nn2)cc1	1.4	0.1
CC1CCCN(C(=O)COC(=O)CNS(=O)(=O)c2ccc3ccccc3c2)C1 (centres undefined)	0.6	-3.1
O=C(O)CC1C(=O)NC2(CCCC2)CN1C(=O)c1ccccn1 (centres undefined)	20.4	6.6
Cn1c(=O)n(Cc2ccccc2)c(=O)c2c1nc1n2CCCN1c1ccccc1	20.7	14.3
COc1ccccc1C(=O)C1CCCN(C(=O)c2cccnc2SC)C1 (centres undefined)	-1.3	-2.3
C=CCc1cccc(C=NNc2nc(-c3cc4ccccc4oc3=O)cs2)c1O	-3.8	-11.0
Fc1ccc(-c2cccc(Nc3ccc(Oc4ccccc4)cc3)n2)c(F)c1	-5.2	-8.1
COc1ccccc1N1CCN(C(=O)c2ccccc2)CC1	-1.6	-8.1

The list itself, previewed entries included:
SMILES	NPYLR7 ag	NPYLR7 ag max-min
OC(Cc1ccccc1)CN(Cc1ccccc1Cl)CC1CC(c2ccc(F)cc2)=NO1 (centres undefined)	-1.7	2.7
COc1ccc(/C=C/C2=NC(=C\c3cc(OC)ccc3OC)/C(=O)O2)cc1	-0.3	-2.0
CN(CCC(O)c1ccccc1)c1nncc(-c2cc3ccccc3o2)n1 (centres undefined)	-1.0	-5.6
S=c1oc2ccccc2n1CN1CCOCC1	9.0	6.3
O=S(=O)(Nc1cccc(F)c1)c1cc(Cl)sc1Cl	0.2	6.9
NC(=O)c1c(NC(=O)NC2CCCCC2)sc2c1CCC2	7.4	6.2
CCOC(=O)c1cnc(-c2ccc(OC)c(OC)c2)nc1N1CCCC1	-2.6	-3.4
CC(C)c1cc(C(=O)NC2CC(=O)N(C3Cc4ccccc4C3)C2)cs1 (centres undefined)	4.5	2.1
COc1ccc(N2C(=O)CC(NNC(=O)c3cc(C(F)(F)F)[nH]n3)C2=O)cc1 (centres undefined)	-0.1	17.8
Cc1ccc(C(=O)Nc2ccc(SCCN3CCOCC3)nn2)cc1	1.4	0.1
CC1CCCN(C(=O)COC(=O)CNS(=O)(=O)c2ccc3ccccc3c2)C1 (centres undefined)	0.6	-3.1
O=C(O)CC1C(=O)NC2(CCCC2)CN1C(=O)c1ccccn1 (centres undefined)	20.4	6.6
Cn1c(=O)n(Cc2ccccc2)c(=O)c2c1nc1n2CCCN1c1ccccc1	20.7	14.3
COc1ccccc1C(=O)C1CCCN(C(=O)c2cccnc2SC)C1 (centres undefined)	-1.3	-2.3
C=CCc1cccc(C=NNc2nc(-c3cc4ccccc4oc3=O)cs2)c1O	-3.8	-11.0
Fc1ccc(-c2cccc(Nc3ccc(Oc4ccccc4)cc3)n2)c(F)c1	-5.2	-8.1
COc1ccccc1N1CCN(C(=O)c2ccccc2)CC1	-1.6	-8.1
CCCc1nnc2sc(Cc3ccc4nc(C)[nH]c4c3)nn12	2.8	0.0
COc1cccc(OC)c1C(=O)OCC(=O)NC(N)=O	-0.8	-1.0
Cc1cccc(-c2nc(C)c(Cc3ccccc3)c(N3CCN(C(=O)Nc4c(C(C)C)cccc4C(C)C)CC3)n2)c1	-0.7	5.7
COc1cc(NC(=O)CCC2CCCN(C(=O)c3cc(C)nc(C)n3)C2)cc(OC)c1 (centres undefined)	3.0	-0.2
O=C(CN1CCNCC1)NC1CCCCC1	-14.5	-24.0
CCN1CCC(CN(CC)Cc2nccn2C)C1 (centres undefined)	3.8	20.7
COC(=O)c1ccc(C=C2N=C(c3cccc(C)c3)OC2=O)cc1	-4.8	-9.7
CSc1ncccc1C(=O)N1CCN(CC(OCc2c(F)cccc2F)c2ccc(Cl)cc2)CC1 (centres undefined)	5.6	-1.5
CCOC1=NN(c2ccc([N+](=O)[O-])cc2)C(=O)/C1=C/c1ccc(OC)c(OC)c1OC	0.9	6.6
CC(C)CN(Cc1cc(NC(=O)c2ccccc2Cl)ccc1N(C)C)S(=O)(=O)c1cccc(Cl)c1	4.8	4.8
Cc1nc2ncnn2c(N2CCCC2)c1Cc1ccccc1	14.0	5.2
CCN(c1cc(C)cc(C)c1)S(=O)(=O)c1cc(C(=O)O)cs1	1.8	0.3
C=CCN(C(=O)CCCCCC)C(C)C(=O)c1c(C)c(C(=O)OCC)n(C)c1C (centres undefined)	17.4	22.8
CC(Nc1ccc2ccccc2c1)C(=O)N(C)C1CCS(=O)(=O)C1 (centres undefined)	1.0	2.0
Cc1cc(NC(=O)CN(C)C(=O)c2ccc(C(C)(C)C)cc2)no1	0.2	-0.5
Fc1ccc(-c2nccc3[nH]nc(-c4ccccc4)c23)cc1	2.5	2.3
CCCCC(=O)Nc1ccc(C)cc1NC(=O)c1cc(C(C)C)on1	-7.5	-7.0
OC(COC(C(F)(F)F)C(F)(F)F)CN1CCN(Cc2ccc3c(c2)OCO3)CC1 (centres undefined)	4.3	4.9
CC1CN(C(=O)Cn2cc(SCC(=O)NC3CCCC3)c3ccccc32)CC(C)O1 (centres undefined)	-3.7	-9.6
CC1Cc2cc(-c3cc(CC#N)no3)ccc2O1 (centres undefined)	2.3	-0.4
O=C(NC1CCCCC1)C1CCC(CNc2c(N3CCCCC3)c(=O)c2=O)CC1 (centres undefined)	6.6	5.5
COc1ccc(CN2CCN(CCc3ccccc3)C(CCO)C2)c(Cl)c1OC (centres undefined)	-3.6	-5.4
Cc1cc(CNC(=O)CCc2nc3ccccc3c(=O)n2C)ccc1F	8.1	4.8
O=C1NC(=O)N(CC(F)(F)F)C1=O	5.1	13.3
Cc1ccsc1CN(C)C(=O)NCc1ccccc1S(=O)(=O)N1CCOCC1	2.8	-1.9
CC(=O)NC(C(=O)N1CCCc2ccccc21)C(C)C (centres undefined)	1.4	-0.3
O=C1NCCCC[C@@H]1NC1CCN(c2cccc(NS(=O)(=O)c3ccc(F)cc3)c2)CC1	17.6	11.8
FC(F)(F)c1cnc(NCCN2CCOCC2)c(Cl)c1	9.9	3.3
COC(=O)c1ccc(N=CC(C#N)c2nc(C3CC3)cs2)cc1 (centres undefined)	5.1	3.8
CN(Cc1ccco1)C(=O)C1CCCN(C2CCN(Cc3ccncc3)CC2)C1 (centres undefined)	7.8	3.0
CC(C)(CCl)C(=O)Nc1ccccc1C1SCC(=O)N1c1ccc(F)cc1F (centres undefined)	-16.8	-5.7
NC(=O)c1c(NC(=O)c2ccc(Br)o2)sc2c1CCCC2	0.8	0.0
CC1CN(C)CCN1CC(=O)NC1(c2ccccc2)CCC1 (centres undefined)	3.7	3.2
Cc1cc(C(=O)NCCc2ccccc2Cl)c2nc3n(c2n1)CCCCC3	0.3	65.3
O=C1c2cccnc2OC(COc2ccccc2)CN1CCOc1ccccc1 (centres undefined)	-1.9	7.3
CCOC(=O)c1ccc2c(c1)nc(SCc1ccccc1I)n2CCOC	-1.4	2.2
CN(C)c1ccc(CNC(=O)N2CCN(c3nccs3)CC2)cc1	1.5	0.6
Cc1cc(C)c2[nH]c(C(=O)N(CCO)Cc3nccs3)c(C)c2c1	-6.2	-9.0
COC1CCC(C(=O)N(Cc2ccccn2)Cc2sccc2C)CC1 (centres undefined)	3.3	-4.6
COc1ccc(Cl)cc1COc1cccc(C#N)c1	10.1	9.7
COc1cc(=C2C=c3ccccc3=N2)[nH]/c1=C\c1[nH]c(C)cc1C	-7.7	-14.0
CCOc1ccc(Br)cc1S(=O)(=O)NC(C)C	2.1	8.1
N#Cc1ccc(NCC(=O)N2CC3CC4CC(C3)CC2C4)cc1	1.5	-0.3

Continued.
SMILES	NPYLR7 ag	NPYLR7 ag max-min
CCNC(=O)NC(=O)C(C)N1CCC(Nc2cccc(C)n2)CC1 (centres undefined)	1.8	0.6
COc1ccc(NC(=O)Nc2c(C)nc3ccccn3c2=O)cc1	0.5	0.1
CN(C(=O)COC(=O)C=Cc1ccc(Br)o1)C1CCCCC1	3.8	1.3
COC(=O)C1=C(C)NC(C)=C(C(=O)OCCN)C1c1ccccc1C(F)(F)F (centres undefined)	22.3	31.8
CCCNC(=O)N1CCN(c2cccc(OCC)c2)C(=O)C1C (centres undefined)	26.4	32.9
Cn1c(=O)[nH]c(=O)c2c1n1c(-c3ccc(Cl)cc3)nnc1n2C	5.3	1.4
COc1cc([N+](=O)[O-])ccc1N1C(=O)C2C3C=CC(C3)C2C1=O (centres undefined)	2.6	0.7
O=C(NC(C(=O)NC1CC1)C1CCN(C(=O)CCc2ccccc2)CC1)c1cccs1 (centres undefined)	-5.6	-2.9
CNC(=O)CCCS(=O)(=O)Cc1nc(-c2cccc(Br)c2)no1	-3.4	-8.7
COc1ccc(NC(=O)CCCNC(=O)c2cccs2)cn1	2.9	-1.1
Cc1nonc1C1CCCN1C(=O)CN1CCOc2ccccc2C1 (centres undefined)	28.1	15.2
Nc1ncnc2ccccc12	-3.1	5.3
Cc1ccc(-c2cc(O)c3c(c2)CN(Cc2nnc(C)s2)CCO3)s1	2.5	57.0
CC1CCc2c(sc3ncnc(N4CCCN(CC(N)=O)CC4)c23)C1 (centres undefined)	3.3	3.1
CCCCS(=O)(=O)N1CCN(c2ccc(-n3nc(C)cc3C)nn2)CC1	-0.4	-7.9
CCOC(=O)N1CCN(C2CCCN(Cc3ccc(F)c(OC)c3)C2)CC1 (centres undefined)	24.6	7.5
COc1cccc(CN(CCC(C)C)CC(O)c2ccccc2)c1 (centres undefined)	15.9	15.1
CCOC(=O)C1CCCN(C(=O)c2ccc3oc(Cc4ccccc4)nc3c2)C1 (centres undefined)	14.3	3.0
Cc1ccccc1N1CCN(C(=O)c2cc(-c3ccccc3F)nc3cc(C(C)(C)C)nn23)CC1	8.4	14.6
CCN1CCN(c2cc(Cl)nc(SCc3ccc(C(=O)NCc4ccc5c(c4)OCO5)cc3)n2)CC1	17.9	20.3
O=C(NCc1ccccn1)c1csc(CSc2nnc(-c3ccco3)n2-c2cc(Cl)ccc2Cl)n1	-11.4	-10.2
CCOC(=O)N1CCC(NCc2cc(-c3ccccc3Cl)on2)CC1	-3.2	-5.5
CCOc1ccc(S(=O)(=O)NCc2ccc3c(c2)OCO3)c2ccccc12	4.9	0.4
Cc1nn(CC(=O)NC2CCCC2)c(=O)c2cc3occc3n12	3.8	-0.8
Cn1nc(Br)c2c(N3CCCC3C(N)=O)ncnc21 (centres undefined)	-1.0	-2.8
COc1ccc(NC(=O)C2CC(=O)N(C)C(=Nc3ccc(Cl)c(C(F)(F)F)c3)S2)cc1 (centres undefined)	-0.2	-2.5
COc1ccc(-c2cc(-c3ccc(OC)cc3)c(C#N)c(SCC(=O)c3cc4ccccc4oc3=O)n2)cc1	-1.9	-5.1
Clc1ccc(C2c3cccn3CCCN2Cc2ccccn2)cc1Cl (centres undefined)	-7.8	11.0
COc1cc(NC(=O)N2CCN(c3nc(Cc4ccc(F)cc4)ns3)CC2C)cc(OC)c1 (centres undefined)	2.9	12.9
CCOC(=O)c1nc2cc(C)c(C)cc2nc1N1CCN(S(=O)(=O)c2ccc(Br)cc2)CC1	1.6	1.0
Cc1csc(N2C(=N)SCC2=O)n1	8.2	4.7
CCCCNC(=O)Cn1nnc2ccccc2c1=O	-7.2	-8.2
CCCCn1c(SCC2CCCN(S(C)(=O)=O)C2)n[nH]c1=O (centres undefined)	-2.8	-4.7
CCOC(=O)C1CCN(c2nc3c(C)cccc3cc2CNCCCN2CC3C=CC2C3)CC1 (centres undefined)	-8.0	-9.9
O=C(O)c1cccc(C(=O)O)n1	-2.6	-3.0
COc1ccc(C(=O)N2CCN(c3nc(-c4ccc(Cl)cc4)nc(C)c3Cc3ccccc3)CC2)c(OC)c1	-2.3	2.5
CCC1SC(c2ccc(F)cc2F)N(CCN(C)C(=O)Nc2ccc(C(F)(F)F)cc2)C1=O (centres undefined)	4.7	13.7
COc1ccc(-c2cc(C(=O)N3CCOCC3)n3nc(-c4ccc(Cl)cc4)cc3n2)cc1	1.4	12.4
COc1ccc(CC(=O)Nc2cccc(C#N)c2)c(OC)c1	1.1	-0.1
Cc1cc(Br)ccc1NC(=O)CN(C)C(=O)CCN1C(=O)COc2ccccc21	2.3	-2.0
CC(C)c1cc(Oc2ccc(F)cc2)nc(SCc2cccc(C(F)(F)F)c2)n1	29.3	22.3
CCC1CCCCN1C(=O)c1cnn(-c2nccc(-c3cc(C)sc3C)n2)c1COC (centres undefined)	2.3	2.9
COCc1c(Br)c(C)nc(OCC(=O)N/N=C\c2cc(Br)c(OC)c(Br)c2)c1C#N	10.6	19.0
Nc1nc(=S)[nH]c2c1C1(CCCCC1)Cc1ccccc1-2	-6.3	-15.5
COc1ccc(OCC(O)Cn2cnc3cc(C)c(C)cc32)cc1 (centres undefined)	7.4	5.4
CC(C)c1nc2cc(C(=O)N3CCSCC3)ccc2o1	12.1	6.9
CC1CCN(c2ccc(NC(C)C(=O)Nc3cccc(F)c3)cc2)CC1 (centres undefined)	-0.6	-3.1
COCc1nc(-c2ccccc2)nc(N2CCN(C(=O)C3CC3)CC2)c1Cc1cccc(Cl)c1	2.8	14.3
C[C@@H]1CCC[C@H](C)N1C(=O)CCNC(=O)C(C)(C)C	6.9	-8.0
CCO[C@H]1[C@H](NC(=O)c2cccnc2)c2ccccc2C12CCN(C(=O)c1ocnc1C)CC2	19.8	7.6
